Mtb betalactam – beta-lactam sensitization of Mtb H37Rv, H37Rv | M. tuberculosis H37Rv growth with meropenem, percent inhibition; hits of this screen are not shown here | AID 434955, 2010 | actives 0.27% (n = 330,000) | inhibition, % at 25 µM;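 active = about 74% or more and at least 40 points above the plate without the antibiotic, then above 30% in a dose series; inconclusive = first-round hits that could not be retested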;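 also: growth measured after seven days incubation then overnight dye step; 0% = bacteria only wells and 100% = bacteria with antibiotic; twin plates without the antibiotic show which effects depend on it; some results filed as inactive read as strong as hits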
Arbovirus inh – antivirals against arbovirus infection, primary screen, cell-based, full library, 10K replicate subset; arbovirus infection cell-based antiviral screen; inhibition, % at 10 µM; actives 0.37% (n = 200,000); AID 1251, 2008;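 active = inhibition from about 30%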;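 also: bluetongue infection of BSR cells; cell survival read as ATP light after 72 h; 0% = infected wells without compound and 100% = uninfected wells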
RecA intein inh – Mtb RecA intein splicing inhibitors, primary screen, biochemical, fluorescence, HTS; actives 0.75% (n = 290,000); Protein RecA (Mycobacterium tuberculosis (strain ATCC 25618 / H37Rv)), P9WHJ3; AID 2221, 2009; inhibition, %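 (about 9 µM by stock and volumes)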; cell-free RecA intein splicing; in the data active = inhibition above about 30%; inconclusive = no clear call, values can overlap the other calls;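 also: 0% = vehicle wells and 100% = reference inhibitor control wells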
Target sequence (P9WHJ3 whole entry, looked up): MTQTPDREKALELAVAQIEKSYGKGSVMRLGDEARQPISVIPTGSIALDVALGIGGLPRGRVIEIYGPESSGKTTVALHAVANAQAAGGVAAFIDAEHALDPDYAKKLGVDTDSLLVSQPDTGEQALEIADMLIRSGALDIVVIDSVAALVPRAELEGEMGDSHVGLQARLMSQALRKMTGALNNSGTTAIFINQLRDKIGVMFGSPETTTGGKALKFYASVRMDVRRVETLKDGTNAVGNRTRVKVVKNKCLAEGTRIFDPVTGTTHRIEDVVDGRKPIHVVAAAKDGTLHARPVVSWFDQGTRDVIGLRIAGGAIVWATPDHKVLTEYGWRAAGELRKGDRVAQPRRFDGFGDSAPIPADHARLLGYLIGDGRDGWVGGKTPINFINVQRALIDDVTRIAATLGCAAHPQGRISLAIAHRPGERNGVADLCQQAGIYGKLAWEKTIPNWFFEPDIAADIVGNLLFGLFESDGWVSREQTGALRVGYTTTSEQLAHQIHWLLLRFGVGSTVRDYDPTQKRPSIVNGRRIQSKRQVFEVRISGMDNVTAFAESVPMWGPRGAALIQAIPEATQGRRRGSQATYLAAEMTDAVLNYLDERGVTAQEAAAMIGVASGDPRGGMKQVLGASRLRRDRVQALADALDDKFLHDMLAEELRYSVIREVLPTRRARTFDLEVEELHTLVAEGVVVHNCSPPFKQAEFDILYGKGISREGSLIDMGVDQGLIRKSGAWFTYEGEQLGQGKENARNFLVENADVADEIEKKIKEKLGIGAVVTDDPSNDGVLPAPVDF
Mtb H37Rv – M. tuberculosis H37Rv growth inhibitors, H37Rv strain (AID 1626); M. tuberculosis H37Rv growth inhibition; higher % means a stronger effect; one-dose inhibition, % at 10 µM; IC50 in µM for titrated hits; actives 0.95% (n = 220,000);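 active = confirmed in a dose series; inconclusive = inhibition above 80% but not taken into the dose series; inactive = below 80% or under 30% at every dose of the series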;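 also: bacteria incubated seven days before Alamar blue readout; 0% = bacteria only wells and 100% = bacteria with antibiotic wells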
YopH PTP inh – YopH tyrosine phosphatase inhibitors, primary screen, biochemical, fluorescence Ex485/Em525; inhibition, %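 (about 10 µM by stock and volumes)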; YopH tyrosine phosphatase [Yersinia enterocolitica]; actives 0.16% (n = 140,000);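 active = inhibition of 50% or more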;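 also: controls were vehicle for no effect and minimum signal wells for full effect; inactives centre near -20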
Arbovirus inh repeat – second read-out of Arbovirus inh, no call of its own (marks repeat the call); inhibition, %; measured here: 10K subset replicate screen; many hits read low in the repeat;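 first of two repeat runs on a subset; 0% = infected and 100% = uninfected wells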
* = called active by the depositor; ? = inconclusive; / = not tested or not shown. This is a subset (hit frequency here may not be typical).

SMILES | Mtb betalactam | Arbovirus inh | RecA intein inh | Mtb H37Rv | YopH PTP inh | others
O=C(O)c1ccc(-c2noc(-c3ccc(F)cc3)n2)cc1 | 72 | / | 0.9 | 0% | /
c1ccc(C2=Nc3ccccc3NC(c3ccccc3)C2)cc1 (stereo not given) | 35 | 4 | 2.8 | -6% | -17
COc1ccccc1-c1noc(CSc2nc(N)cc(=O)[nH]2)n1 | 4 | 6 | 1.5 | -6% | /
CCN(C(=O)CSc1nc2ccc(OC)cc2[nH]1)c1c(N)n(Cc2ccccc2)c(=O)[nH]c1=O | 0 | / | -1.5 | / | /
Cc1ccc(C(C)(C)C)c(OCCN2CCCC2)c1 | 1 | 4 | -0.1 | 2% | -26
Cc1nc2sc(C(c3ccccc3)N3CCN(CCO)CC3)c(O)n2n1 (stereo not given) | 8 | 8 | 0.7 | -2% | / | Arbovirus inh repeat=2
CCc1nc2oc(C(=O)c3ccccc3)c(N)c2c2c1COC(C)(C)C2 | -1 | -3 | -2.3 | 2% | -39 | Arbovirus inh repeat=-4
COc1ccc(/C=N/Nc2cc(N3CCOCC3)nc(C)n2)c(OC)c1 | -3 | / | -5.9 | / | /
COCCCNC(=O)CNC(=S)N(Cc1ccccc1F)C1CCCCC1 | -9 | 6 | -2.5 | 1% | -19
O=C(Nc1ccc2c(c1)OCO2)C1CCN(C(=O)c2ccc([N+](=O)[O-])cc2)CC1 | -7 | 10 | 0.9 | -3% | /
CC(C)=NOc1nc(N2CCOCC2)nc(N2CCOCC2)n1 | -11 | / | 0.4 | 0% | /
Cc1nc2ccccc2c(=O)n1NCc1cccs1 | 1 | -4 | 8.2 | 7% | -52

Nothing new here: entries from further up.
SMILES | Mtb betalactam | Arbovirus inh | RecA intein inh | Mtb H37Rv | YopH PTP inh | others
O=C(O)c1ccc(-c2noc(-c3ccc(F)cc3)n2)cc1 | 72 | / | 0.9 | 0% | /
c1ccc(C2=Nc3ccccc3NC(c3ccccc3)C2)cc1 (stereo not given) | 35 | 4 | 2.8 | -6% | -17
COc1ccccc1-c1noc(CSc2nc(N)cc(=O)[nH]2)n1 | 4 | 6 | 1.5 | -6% | /
CCN(C(=O)CSc1nc2ccc(OC)cc2[nH]1)c1c(N)n(Cc2ccccc2)c(=O)[nH]c1=O | 0 | / | -1.5 | / | /
Cc1ccc(C(C)(C)C)c(OCCN2CCCC2)c1 | 1 | 4 | -0.1 | 2% | -26
Cc1nc2sc(C(c3ccccc3)N3CCN(CCO)CC3)c(O)n2n1 (stereo not given) | 8 | 8 | 0.7 | -2% | / | Arbovirus inh repeat=2
CCc1nc2oc(C(=O)c3ccccc3)c(N)c2c2c1COC(C)(C)C2 | -1 | -3 | -2.3 | 2% | -39 | Arbovirus inh repeat=-4

Following part:
SMILES | Mtb betalactam | Arbovirus inh | RecA intein inh | Mtb H37Rv | YopH PTP inh | others
COc1ccc(Br)cc1C1CC(=O)N2CN(C)CSC2=C1C#N (stereo not given) | 19 | -4 | 8.9 | 5% | -44 | Arbovirus inh repeat=7
Cc1scc(C(=O)NNC(=S)NCc2ccccc2)c1C | 5 | 15 | 0.9 | 11% | 8
Cc1ccc(S(=O)(=O)NC(C)(C)CN2CCc3ccccc3C2)cc1 | 0 | / | 4.7 | -6% | /
Cc1ccc(OCC(=O)NNC(=O)C(=O)NC(C)(C)C)cc1 | 4 | -6 | -0.1 | 9% | -12
Cc1ccc2nc(SCC(=O)N3CCC(Cc4ccccc4)CC3)nc(=O)n2c1 | 1 | / | 2.3 | / | /
COc1ccccc1NC(=O)OC(C)c1ccc(Cl)cc1 (stereo not given) | 3 | / | 11 | / | /
O=C1Nc2ccc(Br)cc2/C1=C/c1ccc(C(=O)O)cc1 | 1 | / | -1.2 | / | /
CCN1C(=O)c2c(C)nc3ccccc3c2C1=O | -1 | 2 | 47* | -1% | 32
CCOc1ccc(NC(=O)CN(C)S(=O)(=O)c2cccc3cccnc23)cc1 | -8 | / | -0.3 | / | /
COC(=O)C1C(=O)OC(C)(C)C1C(C)C(=O)c1ccc(C)cc1C (stereo not given) | -3 | 12 | -3.8 | 9% | /
CCOC(=O)C(C)On1c(SC(C)C(=O)OCC)nc2ccccc2c1=O (stereo not given) | -5 | 7 | 3.2 | -7% | -28
CC1CCc2sc(C(=O)NCCCn3ccnc3)cc2C1 (stereo not given) | -16 | / | 0.6 | / | /
CSCCC(NS(=O)(=O)c1ccc(C)cc1)C(=O)NC1CCCCCC1 (stereo not given) | -11 | / | -0.8 | / | /
O=C(CSC1=NS(=O)(=O)c2ccccc2N1)c1ccccc1 | -9 | / | -1.6 | / | /
O=C1c2ccccc2S(=O)(=O)N1CC(O)Cn1ccc2ccccc21 (stereo not given) | -4 | 4 | 2.8 | -1% | -35
COc1cccc(OC)c1C(=O)Nc1ccccc1N1CCCC1 | -1 | -5 | -0.3 | -7% | -4
O=C(N=C1SC2CS(=O)(=O)CC2N1c1ccc(Cl)cc1Cl)C1CCCO1 (stereo not given) | 3 | / | 0.4 | / | /
CCN1CCCC1CNCc1cc(OC)c(OC)c(OC)c1 (stereo not given) | -8 | 5 | -1.7 | -7% | -10
Cc1cc(C)c(C#N)c(N2CCN(c3ccccc3)CC2)n1 | 4 | / | 8.9 | / | /
N#Cc1nc(-c2ccc(OCc3ccc(Cl)cc3)cc2)oc1N1CCC(C(N)=O)CC1 | 8 | 2 | -1.1 | 1% | -47
O=C(C[n+]1cc(-c2ccc(Cl)c(Cl)c2)n2c1CCC2)OCc1ccccc1 | -5 | -13 | 0.0 | 5% | -17
Cc1ccc(NC(=O)CSc2nc3[nH]ncc3c(=O)[nH]2)cc1Cl | -10 | / | 0.1 | / | /
O=C(C1=C[C@H](c2ccc(C(F)(F)F)cc2)C[C@H](OCc2ccc(CO)cc2)O1)N1CCN(Cc2ccccc2)CC1 | 8 | -17 | 8.8 | 7% | /
CCOC(=O)N1CCN(S(=O)(=O)c2ccc(Br)cc2)CC1 | 1 | / | 2.2 | / | /
CCN1CCN(CCCCSc2ccccc2)CC1 | 0 | -12 | -0.6 | -4% | -10
O=C(Cc1cccs1)Nc1cccc([N+](=O)[O-])c1 | -3 | 5 | 0.9 | 3% | /
COc1ccc(CNC(=O)CNC(=O)c2c(C)nn(C)c2Cl)cc1 | -9 | 3 | -3.8 | 5% | /
Cc1occc1-c1nnc(SCC(=O)N2CC(=O)Nc3ccccc32)n1CC(C)C | 0 | 3 | / | 5% | -32
CCCN(CCC)S(=O)(=O)c1ccc(C)cc1 | -7 | / | 1.1 | / | /
COc1cc(NC(=O)CN2C(=O)c3ccccc3S2(=O)=O)c(OC)cc1Cl | -3 | 6 | 0.7 | -3% | -42
COc1ccccc1NC(=O)C1C2C=CC3(CN(Cc4cccnc4)C(=O)C13)O2 (stereo not given) | -6 | 1 | 0.4 | -1% | -17 | Arbovirus inh repeat=2
COc1ccc([C@@H]2[C@@H]3C(=O)N(C(C)(C)C)C(=O)[C@@H]3[C@]3(CC(C)C)C(=O)N(c4cccc(F)c4)C(=O)N23)cc1 | -7 | / | 1.7 | / | /
CCn1c(Cc2ccccc2)nnc1SCC(=O)N1CCCC1=O | -13 | / | -0.8 | / | /
COc1ccccc1NC(=O)COc1ccc(/C=N/NC(=O)CSCc2cc(C)cc(C)c2)cc1 | -3 | -7 | 1.1 | -6% | -17
O=[N+]([O-])c1ccc(/C=N\NS(=O)(=O)c2ccc(F)cc2)o1 | 100 | / | 0.7 | / | /
Cc1sc2nc(CN3CCOCC3)nc(N3CCC(C(N)=O)CC3)c2c1C | -9 | / | 0.0 | -15% | -16
CC(C)N(C(=O)CSc1nnnn1-c1ccc2c(c1)OCO2)C(C)C | -2 | -3 | 0.6 | -6% | /
Cn1nc(C(=O)N2CCN(c3ccc(F)cc3)CC2)c2c1-c1ccccc1S(=O)(=O)C2 | 2 | / | 0.2 | / | /
COc1ccc2c(c1OC)C(=O)NC(C)=C(C(=O)OC(C)(C)C)C2O (stereo not given) | -7 | 3 | -0.2 | 5% | -31
CCCC(C)NC(=O)CSc1nnc2ccccn12 (stereo not given) | 7 | 16 | 2.0 | 2% | /
Cc1cc(C)cc(NC(=O)Cn2nnc(C(=O)NCc3ccccc3Cl)c2N)c1 | -4 | / | 0.2 | / | /
O=C1C2C3C=CC(C3)C2C(=O)N1c1nc2ccccc2s1 (stereo not given) | -17 | 13 | -1.0 | 15% | -20
COc1cccc(C(=O)Nc2ccc(NC(=O)c3ccco3)cn2)c1 | -12 | 0 | -0.7 | 4% | 10
CCOC(=O)c1ccc(-c2ccc(/C=N/NC(=O)CN(c3ccccc3Br)S(C)(=O)=O)o2)cc1 | 5 | -23 | -2.4 | 18% | -13
COc1ccc(C(=O)Nn2c(CC(C)C)nc3cc(Cl)ccc3c2=O)c(OC)c1 | 3 | / | 0.9 | / | /
COC(=O)CNC(=O)C1CCCN1C(=O)CNC(=O)OCc1ccccc1 (stereo not given) | -2 | / | -1.4 | / | /
CC(C)(C)C(=O)NC(=S)Nc1ccc(Cc2ccncc2)cc1 | 5 | / | -1.7 | / | /
CCC(C)c1ccc(NC(=S)NCCn2cc(Br)cn2)cc1 (stereo not given) | 82 | -8 | 3.9 | 2% | /
COC(=O)CNc1nc(Cl)nc(N2CCC(C)CC2)n1 | -8 | / | -7.5 | 1% | /
Cc1nc(-c2cccnc2)sc1C(=O)Nc1ccc(F)cc1F | 0 | 4 | -3.9 | -2% | 9
COc1ccc(NC(=O)CN2CCN(Cc3ccc4c(c3)OCO4)CC2)cc1OC | 0 | 4 | -3.7 | 5% | -25
O=[N+]([O-])c1cccc(-c2nc(-c3cccs3)c(-c3cccs3)[nH]2)c1 | 2 | 3 | 2.0 | / | -37
Cc1ccc(NC(=O)COc2ccc3oc4c(c3c2)CCCC4)nc1 | 12 | 13 | 3.3 | 5% | -21
Cn1cc(CN2CCCC(CO)(Cc3ccccc3)C2)c2ccccc21 (stereo not given) | 2 | -7 | 2.9 | 2% | /
Cc1cccn2c(CNC3CCCc4ccccc43)c(C(=O)N3CCCCC3)nc12 (stereo not given) | -4 | 10 | / | 0% | /
COc1ccc(S(=O)(=O)NCc2cccnc2)cc1OC | 8 | / | -1.5 | / | /
Cc1ccsc1/C=C1\Oc2cc(OCC(=O)c3ccccc3)ccc2C1=O | 12 | 1 | -4.0 | -9% | 1
CCc1nnc(NC(=O)CSc2nnc(CNC(=O)c3cc(OC)c(OC)c(OC)c3)o2)s1 | 1 | 1 | -6.2 | -1% | /
CCCCNC(=S)Nc1ccc([N+](=O)[O-])cc1 | 0 | -8 | 1.4 | 4% | -12
O=c1c2[nH]c3ccccc3c2ncn1Cc1cccnc1 | / | 1 | / | 0% | -13

Next structures follow.
SMILES | Mtb betalactam | Arbovirus inh | RecA intein inh | Mtb H37Rv | YopH PTP inh | others
Cc1cc(C)c(-c2c(O)c3c(n(C)c2=O)CC(C)(C)CC3=O)c(C)c1 | 2 | 4 | -2.9 | 3% | -17
O=C1NC(c2ccc(Br)cc2)Oc2ccccc21 (stereo not given) | -2 | / | 3.9 | / | /
CCn1c(SCC(=O)NCc2ccc3c(c2)OCO3)nnc1-c1cccs1 | -1 | -2 | -1.2 | 1% | 3
CCOC(=O)c1ccc(N=Cc2c(O)n(-c3ccc(OC)cc3)c(=S)[nH]c2=O)cc1 | 96 | -7 | -0.7 | ? | /
COc1ccc(S(=O)(=O)N(CCc2ccccc2)CC(=O)NC(C)C)cc1 | -4 | 0 | 0.9 | 11% | -36
S=C(Nc1ccccc1)Nc1ccc(Cl)cn1 | / | -7 | -1.4 | 79% | /
Cn1c(=O)[nH]c(=O)c2c1nc(Br)n2CCSc1nc2ccccc2o1 | -8 | 20 | -1.1 | 1% | -4
Cc1nc2ccc(NC(=O)NCCCO)cc2s1 | -6 | 8 | -2.4 | -11% | -12
COC(=O)CCCNC(=O)OCc1ccc([N+](=O)[O-])cc1 | -4 | 3 | -2.9 | -1% | -17
CCOc1ccc(S(=O)(=O)N(CC)CC)cc1NC(=O)c1ccc(N2CCCC2=O)cc1 | -2 | / | 0.6 | / | /
COC(=O)c1ccc(C2C(C(=O)c3cc4ccccc4o3)=C(O)C(=O)N2CCCN(C)C)cc1 (stereo not given) | 0 | 0 | 1.3 | -4% | -24
COc1cc(Br)cc2cc(C(=O)NCC3CCCO3)c(=O)oc12 (stereo not given) | 24 | 0 | -1.4 | 5% | -38
O=C(O)Cc1ccc(C(=O)c2ccccc2F)s1 | 2 | -5 | -1.7 | / | -16
Cc1ccc(C(=O)C(OC(=O)CNC(=O)c2ccc(Cl)cc2)c2ccccc2)cc1 (stereo not given) | 8 | 1 | 5.6 | -5% | -45
CCC1CCC(NC(=O)Nc2cccc(OC)c2)CC1 (stereo not given) | 100 | -21 | 2.2 | 5% | /
